# SARS PLP yeast – inhibitors of SARS-CoV papain-like protease in yeast; S. cerevisiae expressing SARS-CoV PLpro, growth rescue; control for the full effect not named in the record; Potency, µM (titrated, usually from 32.9 µM), without a hit: at the top dose activity, positive = growth rescue; actives 0.19% (n = 330,000); AID 485353; also: 0% is about no effect; nearly all actives have a fitted effect of over 55% in size; growth read by luminescence after 48 h
# RE007 growth inh – less growth of the S. pombe RE007 Vpr strain | actives 0.21% (n = 360,000) | Potency, µM (titrated, usually from 92.2 µM), for inactives: at the highest dose activity change, negative = less growth | AID 651644 | S. pombe RE007 Vpr strain, BacTiter-Glo ATP luminescence, 24 h; control for the full effect not named in the record; active = well fitted falling curve with a large enough effect; inconclusive = small, poorly fitted or top-dose-only effect; inactive = no such curve, though single readings can be large or run the other way;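 also: % is scaled to controls: 0 for no effect and ±100 for the full control effect; nearly all actives have a fitted effect of over 50% in size; the assay follows cell death caused by Vpr and the record does not say whether a fall means rescue or toxicity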
#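 Fission yeast RE007 carrying one integrated HIV-1 vpr copy, seeded at OD 0.01 in PMG+AL medium with 23 nL pinned compound. Grown 24 h at 30 degrees; viability read by BacTiter-Glo luminescence after 5 min.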
# 2A StopGo – FMDV 2A StopGo reporter, luciferase signal | human cells with a luciferase reporter of 2A StopGo recoding; control for the full effect not named in the record | Potency, µM (top dose mostly 57.9 µM), for inactives: top-dose signal change, negative = less light | actives 1.2% (n = 410,000) | AID 1159524; active = well fitted falling curve with a large enough effect; inconclusive = small, poorly fitted or top-dose-only effect; inactive = no such curve, though single readings can be large or run the other way; tested in HEK293T cells; also: % is scaled to controls: 0 for no effect and ±100 for the full control effect; nearly all actives have a fitted effect of over 45% in size; luciferase light after 4 h
# MARV entry inh – Marburg virus entry inhibition; Marburg virus pseudotyped entry inhibition, cell reporter; control for the full effect not named in the record; about a third of the inactives were read at about 46 µM; actives 1.8% (n = 300,000); Potency, µM (highest dose often 37.8 µM), for inactives: at the top dose activity change, negative = inhibition, usual class: inhibitors; active = well fitted inhibition curve with a large enough effect; inconclusive = small, poorly fitted or top-dose-only effect, or effect the other way; inactive = flat fitted curve, though single readings scatter; tested in HEK293 cells; about a fifth of its hits are not listed in these tables; also: % is scaled to controls: 0 for no effect and ±100 for the full control effect; luciferase read-out
# LASV entry inh – Lassa virus entry inhibition | Lassa virus pseudotype entry inhibition, cell reporter; control for the full effect not named in the record | Potency, µM (highest dose often 37.9 µM), for inactives: at the top dose activity change, negative = inhibition, most hits filed as inhibitors | actives 1.2% (n = 300,000) | AID 540256; active means well fitted inhibition curve with a large enough effect; inconclusive means small, poorly fitted or top-dose-only effect, or effect the other way; inactive means flat fitted curve, though single readings scatter; tested in HEK293 cells; also: % is scaled to controls: 0 for no effect and ±100 for the full control effect; nearly all actives have a fitted effect of over 50% in size; luciferase read-out
# NS1 function inh – inhibitors of influenza NS1 protein function. S. cerevisiae slowed by influenza A NS1, growth recovery by OD600. Potency, µM (top dose mostly 46.1 µM), for inactives: at the highest dose activity, positive = more growth. actives 0.4% (n = 270,000); also: actives are rising curves; nearly all actives have a fitted effect of over 50% in size
#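 In this qHTS, NS1 from influenza A is expressed in budding yeast, where it slows growth. Cells are switched from glucose to 2% galactose medium (pH 6.0, -URA), treated with compound, and growth recovery is read at OD600.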
# Cruzain inh Det – cruzain (T. cruzi) inhibition with detergent | purified cruzain, Z-FR-AMC fluorescence, 0.01% Triton | P25779 | Potency, µM, for inactives: max response, negative = inhibition, usual class: inhibitors | actives 0.43% (n = 200,000) | AID 1478; active = well fitted curve in the direction sought with a large enough effect; inconclusive = small, poorly fitted or top-dose-only effect, or another doubt; inactive = no such curve, though single readings can be large; an effect the other way counts as inactive or inconclusive;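 also: plate controls were neutral wells for no effect and buffer without enzyme for full effect; nearly all actives have a fitted effect of over 40% in size; top concentration of the series not given in the record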
# Target sequence (P25779 123-467 limits assumed): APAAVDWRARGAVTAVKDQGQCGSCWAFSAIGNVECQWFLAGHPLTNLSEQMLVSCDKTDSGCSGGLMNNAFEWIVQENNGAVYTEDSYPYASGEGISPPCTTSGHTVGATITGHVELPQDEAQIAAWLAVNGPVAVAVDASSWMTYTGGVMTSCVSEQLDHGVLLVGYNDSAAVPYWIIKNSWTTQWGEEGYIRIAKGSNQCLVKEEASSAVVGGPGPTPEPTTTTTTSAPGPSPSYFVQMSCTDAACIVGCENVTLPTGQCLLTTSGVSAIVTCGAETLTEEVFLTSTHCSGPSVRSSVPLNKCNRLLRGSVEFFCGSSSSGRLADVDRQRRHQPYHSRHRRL
#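 15 min RT preincubation of 1.5 nM cruzain with compound, then 2 uM Z-FR-AMC added; kinetic AMC fluorescence, 60 s delta. Triton X-100 0.01%, pH 5.5.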
# Cruzain noTriton – cruzain (T. cruzi) inhibition without detergent | Potency, µM, without a hit: max response, negative = inhibition, most hits filed as inhibitors | actives 2.3% (n = 200,000) | purified cruzain, Z-FR-AMC fluorescence, no detergent | P25779; active = well fitted curve in the direction sought with a large enough effect; inconclusive = small, poorly fitted or top-dose-only effect, or another doubt; inactive = no such curve, though single readings can be large; an effect the other way counts as inactive or inconclusive;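 also: plate controls were enzyme without inhibitor for no effect and buffer without enzyme for full effect; nearly all actives have a fitted effect of over 40% in size; top concentration of the series not given in the record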
#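 Detergent-free condition (0.00005% Triton X-100) in acetate buffer pH 5.5 with DTT. 1.5 nM enzyme and compound were pre-mixed 15 min, then 2 uM Z-FR-AMC substrate added; reaction progress from fluorescence change between first and third reads (60 s).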
# Active calls of the source: *; ? = inconclusive; / = not tested or not shown; & = joins results of further samples; [ ] = dose if it differs, or a comment. Unless noted, calls follow the shape of the dose curve; as a rule, active means well fitted rising curve with a large enough effect; inconclusive means small, poorly fitted or top-dose-only effect; inactive means no such curve, though single readings can be large or run the other way. Potency is read from the fitted curve at half-maximal effect.
SMILES,SARS PLP yeast,RE007 growth inh,2A StopGo,MARV entry inh,LASV entry inh,NS1 function inh,Cruzain inh Det,Cruzain noTriton
CN(C(=O)COC(=O)Cn1c(C(F)(F)F)nc2ccccc21)c1c(N)n(Cc2ccccc2)c(=O)[nH]c1=O,3%,23%,-7%,-4%,11%,-3%,/,/
COc1cc(CNc2ccc(N3CCCC3)cc2)ccc1OCc1ccccc1F,-20%,-8%,-4%,-27%,15%,-15%,-2.4%,?
CC1CCN(CCOc2ccc(Cl)c(Cl)c2)CC1,-27%,0%,7%,?,?,11%,-2.3%,-15%
Nc1ccc2c(c1)COc1ccccc1O2,-7%,-9%,30%,14%,86%[14.3 µM],-39%,-2.6%,-1%
CC(C)(C)c1ccc(C(=O)/C(C#N)=C/c2cccs2)cc1,-4%,-20%,25%,8%[46.1 µM],1%[46.1 µM],0%,/,/
CCc1nc(SCc2cc(Cl)ccc2OC)n[nH]1,3%,10%,16%,0%,4%,-32%,3.2%,10%
CCN(CC)S(=O)(=O)c1ccc(-c2nnc(SCC(=O)N3CCOCC3)o2)cc1,-1%,-8%,/,3%&-4%,23%,0%,2.5%,5%
CC(C)(C)SC(=O)CC1NS(=O)(=O)OC2CCCCC12 (configuration not stated),3%,1%,-12%,/,/,6%,/,/
CCOC(=O)CCc1c(C)nc2c(c(C)nn2-c2ccccc2)c1C,0%,6%,-15%,/,/,-1%,/,/
Cc1ccc(-c2nnn(CCC(=O)N3CCCCC3C)n2)cc1 (configuration not stated),-5%,-4%,/,7%,13%,-53%,0.6%,-6%
CCOC(=O)c1c(S(=O)(=O)Nc2ccc(C)cn2)c(C)n(C)c1C,7%,11%,27%,/,/,-5%,/,/
O=c1c2sc3nc(N4CCOCC4)c4c(c3c2ncn1-c1ccccc1)CCCC4,2%,26%,?,?,?,/,/,/
COc1ccc(C(=O)NCc2nnc(SCC(=O)Nc3ccccc3OC)n2C)cc1,0%,11%,0%,25%[46.1 µM],-14%,1%,/,/
Nc1nccnc1C(=O)OCC(=O)Nc1cccc(S(=O)(=O)N2CCCCC2)c1,15%,8%,-21%,25%,13%,12%,-5.0%,-4%
CC(=O)N/N=C/c1cc(C(C)C)cc(/C=N/NC(C)=O)c1O,0%,1%,-6%,-18%[46.1 µM],-21%[46.1 µM],2%,/,/
CCCC(=O)C1=C(O)C(C(=O)OC)C(C)(C)CC1=NC(C)C (configuration not stated),-13%,19%,-5%,4%,9%,0%,-2.1%,0%
C=CCN(CC=C)C(=O)c1ccc(OC2CCN(Cc3ccccn3)CC2)cc1,1%,4%,9%,1%[46.1 µM],23%,-4%,/,/
Nc1ccc(C(=O)OCC(=O)NC(=O)c2ccccc2)cc1[N+](=O)[O-],-9%,-18%,7%,?,-1%[46.1 µM],/,/,/
CCCCn1c(N)c(N(CC(C)C)C(=O)CSc2nnc(-c3ccc(Cl)cc3)o2)c(=O)[nH]c1=O,-7%,-13%,-3%,-26%[46.1 µM],6%,/,/,/
Cc1ccc(C(=O)Nc2nnc(C)s2)o1,4%,6%,/,20%,20%,-3%,3.5%,2%
O=S1(=O)c2ccccc2N(Cc2ccc(F)cc2)c2ccccc21,/,/,0%,/,1%[46.1 µM],/,-8.9%,?
Cc1ccc(C2C(C(=O)c3cccs3)=C(O)C(=O)N2CCN2CCOCC2)o1 (configuration not stated),-2%,2%,50%[activator],-24%,-1%,?,-2.0%,-14%
O=C(CSCc1ccc([N+](=O)[O-])cc1)NN=C1CCCCCC1,-1%,0%,-22%,14%,-4%,?,2.9%,4%
O=C(NCCc1ccc(Cl)cc1)c1ccc(CS(=O)Cc2ccccc2Cl)o1 (configuration not stated),5%,-17%,?,/,?,1%,-8.5%,14%
Cc1[nH]c2ccc(F)cc2c1CCNC(=O)C1CCCCC1C(=O)OCC(F)(F)F (configuration not stated),10%,23%,-17%,11%,0%,-7%,-7.2%,-5%
COC(=O)N/N=C/c1cc(C)n(-c2ccc(F)cc2)c1C,1%,6%,26%,16%[46.1 µM],2%[46.1 µM],/,/,/
O=C(O)c1ccc(CNS(=O)(=O)c2ccc(Oc3ccccc3Cl)cc2)cc1,-5%,0%,-12%,/,/,12%,/,/
Cc1ccc2c(COC(=O)CNC(=O)c3ccccc3)cc(=O)oc2c1,?,-9%,14%,11%,-1%,1%,-6.9%,3%
CCSC1=N/C(=C\c2cccc(F)c2)C(=O)S1,-11%,-15%,-17%,-6%,2%,-17%,-7.2%,-5%
Cc1cc(C)n(C2CC(=O)N(c3cccc(Cl)c3)C2=O)n1 (configuration not stated),-12%,0%,-12%,16%[46.1 µM],14%,/,/,/
CCc1ccc(CCC(=O)Nc2ccccc2C(=O)O)o1,-3%,12%,19%,?,?,-46%,2.7%,-1%
CCN(C(=O)CSc1nnc(-c2ccc(OC(F)F)cc2)n1N)C1CCS(=O)(=O)C1 (configuration not stated),/,-6%,-12%,?,11%,/,/,/
CC(Oc1ccc(Cl)cc1Cl)C(=O)NC1=NN(c2ccccc2)C(=O)C1 (configuration not stated),-23%,8%,-5%,3%,0%,?,-27%,-16%
O=C(Nc1ccc(Cl)cn1)c1cccc(S(=O)(=O)N2CCOCC2)c1,16%,18%,-19%,2%,2%,-4%,2.3%,1%
COc1ccccc1OCCOCCOc1ccccc1Cl,16%,6%,-19%,0%,7%,-4%,-4.5%,-7%
CC(C)COP(=O)(OCC(C)C)C(O)c1ccc2c(c1)OCO2 (configuration not stated),-1%,22%,0%,/,/,1%,/,/

# Entries of single compounds, looked up by structure. Order of values: SARS PLP yeast, RE007 growth inh, 2A StopGo, MARV entry inh, LASV entry inh, NS1 function inh, Cruzain inh Det, Cruzain noTriton
# COC(=O)N/N=C/c1cc(C)n(-c2ccc(F)cc2)c1C as listed: 1%, 6%, 26%, 16%[46.1 µM], 2%[46.1 µM], /, /, /
# CCSC1=N/C(=C\c2cccc(F)c2)C(=O)S1 as listed: -11%, -15%, -17%, -6%, 2%, -17%, -7.2%, -5%
# CC(Oc1ccc(Cl)cc1Cl)C(=O)NC1=NN(c2ccccc2)C(=O)C1 (configuration not stated) as listed: -23%, 8%, -5%, 3%, 0%, ?, -27%, -16%

# (further entries)
SMILES,SARS PLP yeast,RE007 growth inh,2A StopGo,MARV entry inh,LASV entry inh,NS1 function inh,Cruzain inh Det,Cruzain noTriton
CCOC(=O)C1CCN(C(=O)c2ccc(-n3ccc4ccccc43)s2)CC1,/,/,18%,/,-4%[46.1 µM],/,-3.5%,?
Cn1c(=O)n(-c2ccc3c(c2)OCO3)c2nc(-c3ccccc3)nc(C(N)=O)c21,/,/,-4%,?,19%[46.1 µM],/,-0.2%,-2%
COc1ccccc1NC(=O)c1sc2nc(C)c(C(=O)Nc3ccc(C)cc3C)c(-c3ccccc3Cl)c2c1N,/,/,-11%,3%[46.1 µM],10%[46.1 µM],/,7.5%,?
CCOC(=O)c1sc2ccccc2c1S(=O)(=O)Nc1ccc(N(C)C)cc1,/,/,0%,/,-12%[46.1 µM],/,-9.7%,-22%
COc1ccc(NC(=O)c2cc(OC)c(OC)cc2OC)c(S(=O)(=O)N2CCOCC2)c1,2%,17%,-23%,11%&11%,-4%,-12%,5.8%,4%
Cc1cc(N)n(-c2ccc(S(=O)(=O)N3CCOCC3)cc2[N+](=O)[O-])n1,1%,2%,-13%,0%[46.1 µM],-1%,1%,/,/
O=C1CC(Sc2nnc(-c3ccccc3O)o2)C(=O)N1c1ccccc1 (configuration not stated),-23%,50µM*,/,-6%,9.2µM*,-256%,-3.4%,-8%
CCC1CCCCN1CCCNC(=O)C1CCN(Cc2nc(-c3ccc(Cl)cc3)oc2C)CC1 (configuration not stated),16%,-16%,-21%,/,/,4%,/,/
Cc1ccc(N(CC(=O)NCCSc2ccccn2)S(C)(=O)=O)cc1,1%,-9%,6%,-11%[46.1 µM],-16%,1%,/,/
COc1c2c(cc3oc(=O)ccc13)OC(C)(C)C=C2,1%,-4%,19%,/,/,-5%,/,/
O=C(NC(=S)NCC1CCCO1)c1ccccc1[N+](=O)[O-] (configuration not stated),2%,-1%,-2%,1%[46.1 µM],-2%,4%,/,/
O=C(CSC1=NS(=O)(=O)c2ccccc2N1)NCc1ccc(F)cc1,0%,8%,18%,-11%,-11%,/,/,/
O=C(Nc1nc(-c2ccccc2)cs1)c1cccnc1,9%,-22%,-19%,-20%,-20%,3%,3.3%,-7%
NS(=O)(=O)OCc1ccc(C(F)(F)F)cc1,1%,-6%,-10%,/,/,-6%,/,/
Cc1ccc(C(=O)Oc2ccc(C(=O)COC(=O)C3CC(=O)N(Cc4ccco4)C3)cc2)cc1 (configuration not stated),12%,14%,43%[activator],?,9%,-2%,-2.0%,27%
COc1c(F)c(F)c(C(=O)Nc2ccc3oc(-c4ccncc4)nc3c2)c(F)c1F,-5%,-15%,-15%,-16%[46.1 µM],-7%,-3%,0.9%,?
CC(=O)NCCOC(=O)Nc1cccnc1,0%,-18%,/,17%,-1%,6%,3.4%,-1%
Cc1cc(-c2ccc(S(=O)(=O)Nc3ccc(Cl)cc3)cc2)on1,/,/,17%,/,-17%[46.1 µM],/,-8.9%,3%
CCn1c(SCC(=O)NCc2ccco2)nc2c(c1=O)SC(C)C2 (configuration not stated),-7%,0%,-25%,-3%,10%,-13%,-5.8%,-24%
CCOC(=O)c1sc2nccc(N(C)C)c2c1N=CNOCc1c(F)cccc1Cl,-13%,26%,0%,?,-18%,-1%,-8.6%,21%
CCC(C)/C=C/C1=CC2=C(Cl)C(=O)C3(C)OC(=O)C(C(=O)C(C)C(C)O)C3C2=CO1 (configuration not stated),1%,-18%,13%,/,/,3%,/,/
COc1cc(NC(=S)NCc2cccs2)cc(OC)c1,16%,37%,92%[activator],-18%,-13%,7%,-2.2%,-10%
CCOC(=O)c1ccc(NC(=O)c2oc3ccc4c(c3c2C)C(=O)CC(C)(CC)O4)cc1 (configuration not stated),/,/,?,?,2%[46.1 µM],/,-3.7%,6%
COc1ccc(CC2=C(O)c3ccccc3C(=O)C2=O)cc1,-8%,?,-5%,?,-10%[46.1 µM],-125%,/,/
